Screening data as filed in PubChem BioAssay.
NPYLR7 agonist: activates Aedes aegypti NPYLR7 receptor; AID 1259423; activation, % at 10 µM; 270,000 tested, 0.15% active; HEK293T NPYLR7/Galpha15, GCaMP6s calcium fluorescence; in the data active means activation above about 40%;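 further: 0% = vehicle and 100% = reference agonist at the receptor; some compounds past the cut are filed as inactive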
NPYLR7 agonist max-min: recorded beside NPYLR7 agonist, whose call it bears; activation, %; measured here: Max-Min RFU normalised activation; some inactives read as strong as hits;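 span of the calcium signal over five minutes; 0% = vehicle and 100% = native peptide agonist; compound fluorescence can raise it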
Active calls of the source: *; & = joins results of further samples. An excerpt; count on the stated rates, not on these rows.

nr	molecule	NPYLR7 agonist max-min	NPYLR7 agonist
1	CC(C)CNc1nccc2c1ncn2Cc1ccccc1	-13	-4
2	COc1ccc(C2NN(C)C3C(=O)N(c4ccc(C)cc4)C(=O)C23)cc1 (stereo not given)	-16	-8
3	Cc1ccc(-n2nnc3c(=O)n(Cc4cccc5ccccc45)cnc32)cc1Cl	-11	-6
4	COc1cc(C(=O)Nc2cccc(-c3cccc(-c4ccc5c(c4)NC(=O)CO5)n3)c2)cc(OC)c1OC	-12	-3
5	O=C(O)CCc1ccc(NCc2cccc(Oc3ccccc3)c2)cc1	-4	1
6	CC(=O)N[C@@H]1C=C(C(=O)NCC(N)=O)C[C@@H](O)[C@@H]1O	-20	-10
7	Cc1ccc2nc(NCc3ccccc3)c(C=Nc3ccc(Cl)cc3)c(=O)n2c1	-13	-7
8	O=C(Cc1c(F)cccc1F)N1CCOC(COCc2ccc(F)cc2Cl)C1 (stereo not given)	5	11
9	COCCN1CCC(c2nccn2Cc2cccnc2)CC1	13	31
10	CC(C)(C)C(=O)NCCSc1ncc(-c2ccccc2)[nH]1	-2	-1
11	CCCC(NC(=O)c1ccc(C)cc1)C(=O)Nc1cccc(N2CCCC2)c1 (stereo not given)	11	14
12	Cc1ccc2nc(SCC(=O)N3CCN(c4ccccc4)CC3)nc(=O)n2c1	-1	2
13	CCOc1ccc(-c2ccnc(N3CCN(C(=O)c4cccnc4Sc4ccc(C)cc4)CC3)n2)cc1	6	11
14	C=C(Cl)CSc1nc(N)nc(-c2ccco2)n1	4	6
15	CC1CN(c2cc(Oc3ccc(F)c(F)c3)ncn2)CCN1C(=O)CCc1ccccc1 (stereo not given)	1	-3
16	O=S(=O)(c1cccnc1)N1CCN(C2CCCc3ccccc32)CC1 (stereo not given)	1	3
17	COc1cc(-c2nccn2CCn2nc(C)cc2C)cc(OC)c1O	-3	1
18	CCOC(=O)CCC(=O)N[C@@H](C)C(=O)N1CCC(C(=O)Nc2ccc(OC)cc2)CC1	6	4
19	CCn1c(C2CCCN(c3cc(C)nc(C(C)C)n3)C2)n[nH]c1=O (stereo not given)	8	24
20	CC(CC(=O)O)CC(=O)N1CCc2cc(O)c(O)cc2C1C (stereo not given)	-14	-8
21	CCOc1ccccc1C1C(C(=O)OC)=C(C)NC2=C1C(=O)CC(c1ccccc1)C2 (stereo not given)	-3	0
22	CC(C)CCNC(=O)Cc1nc2ccccc2[nH]1	-7	-4
23	Cc1ccc(-c2cnn(C(C)(C)C(=O)Nc3ccc(F)cc3)c2)c(C)c1	6	4
24	COc1cccc(NC(=O)N2CCCCC2CCN2CCCC2=O)c1 (stereo not given)	9	11
25	COCC(=O)N(Cc1ccccc1)Cc1c(-c2ccccc2)noc1N1CCC(C)CC1	6	3
26	COC(=O)c1c(C2CC2)csc1N	12	14
27	CC(=O)NCCNC(=O)c1nnc2n1CCN(CC(C)Cc1ccc3c(c1)OCO3)C2 (stereo not given)	4	9
28	Cc1c(C(=O)NCCc2cccc(Cl)c2)cnc2c(-c3ccc4c(c3)OCO4)cnn12	-8	0
29	CCCCCn1cc(C2CCN(C(=O)c3cc(Cl)cnc3Cl)CC2)c2ccccc21	6	17
30	Cc1oc2nc[nH]c(=O)c2c1C(=O)OC(C)C(=O)N1CCC(C)CC1 (stereo not given)	0	4
31	COc1cc(OC)cc(-c2nnc(SCC(=O)N3CCCC3)n2-c2ccccc2C)c1	13	7
32	CC(Sc1ccccn1)C(=O)N(C)Cc1ccon1 (stereo not given)	1	1
33	CC1(C(=O)NCc2ccco2)CCN1C(=O)c1ccco1 (stereo not given)	1	2
34	Cc1cc(CC(=O)N2CCCCCC2c2ccco2)n[nH]1 (stereo not given)	3	8
35	COCC(C)NC(=O)Nc1cn(C)c2ccccc12 (stereo not given)	-1	1
36	N#CCc1ccc(NC(=O)C(=O)NC2CCN(C3CCCC3)C2)cc1 (stereo not given)	10	20
37	Cc1cc(C)c(S(=O)(=O)NCCC(=O)NCc2cccnc2)cc1N(C)S(C)(=O)=O	-9	-5
38	CC(NC(=O)Nc1cn(C)c2ccccc12)c1ccccc1 (stereo not given)	-4	2
39	CC(C)c1cccc(C(C)C)c1NC(=O)N1CCN(c2nc(Cc3ccccc3)ns2)CC1C (stereo not given)	4	4
40	COc1ccc(CCNC(=O)c2cccnc2N2CCN(C(=O)c3c(F)cc(F)cc3F)CC2)cc1OC	4	6
41	COCc1nc(OC)c2c(C)c(C(=O)NC3CCCC3)sc2n1	2&-3	3&0
42	CC(CNC(=O)Nc1ccn(C)n1)Sc1ccccc1 (stereo not given)	-4	-2
43	CCCCc1ccc(NC(=O)CCS(=O)(=O)c2ccc(Cl)cc2)cc1	-2	3
44	O=C(COC(=O)Cn1cc(C(F)(F)F)ccc1=O)NC(=O)NC1CCCC1	10	0
45	CCOC(=O)c1cc2cc3c(cc2nc1CSc1ccccc1)OCO3	3	2
46	CC1(Cc2ccccc2Cl)C(=O)Nc2cc(-c3ccccc3Cl)ccc21 (stereo not given)	2	1
47	Cc1occc1C(=O)OCC(=O)N1CC(=O)Nc2cc(C(F)(F)F)ccc21	7	12
48	COc1ccccc1C(NS(=O)(=O)c1ccc2c(c1)CCCC2)c1nccn1C (stereo not given)	2	0
49	CC(C)NC(=O)CSc1nc(N)c(NC(=O)c2ccc(F)cc2)c(=O)[nH]1	-7	-4
50	COc1ccc(NC(=O)c2c(O)c3sccc3n(C)c2=O)c(C)c1	-7	-6
51	COc1ccc(NC(=O)C(C)n2c(=O)n(-c3ccccc3OC)c(=O)c3ccc(Cl)cc32)cc1 (stereo not given)	10	1
52	N#CC1C(=N)OC2=C(C(=O)CCC2)C1c1ccc2c(c1)OCO2 (stereo not given)	-7	-2
53	C=C(C)CSc1nc2c(c(=O)[nH]c(=O)n2C)n1CC=CC	-15	-16
54	COCC1(C(=O)N2CCOC(c3ccc(F)cc3)C2)CCC1 (stereo not given)	0	4
55	O=C(NC1C=CS(=O)(=O)C1)c1ccc2c(c1)OCO2 (stereo not given)	-3	-1
56	Brc1cc2c(cc1CSc1nnc(-c3cccs3)n1C1CC1)OCO2	8	0
57	Cc1cc(C)c(/C=C/C(=O)N2CCN(CCS(C)=O)CC2)cc1C (stereo not given)	2	3
58	CC1CCC(NC(=O)CCNC(=O)c2ccc(Br)cc2)CC1 (stereo not given)	-8	-6
59	CS(=O)(=O)Nc1nc2n(n1)C(c1ccc(F)cc1)CC(c1ccccc1)=N2 (stereo not given)	4	6
60	CCOc1cccc(-c2ccc(N3CCN(C(=O)c4ccco4)CC3)nc2)c1	-1	1

More results:
nr	molecule	NPYLR7 agonist max-min	NPYLR7 agonist
61	C=CCOc1c(OC)ccc2c1CN(C(C)C)C(=O)CCN2	11	1
62	COc1ccc2[nH]c3c(c2c1)CCN(C(=O)c1ccc(OC(F)(F)F)cc1)C3c1ccc(COC(C)=O)o1 (stereo not given)	0	12
63	O=C(CS(=O)(=O)Cc1ccccc1F)NC1CCCC1	-3	-3
64	COC(=O)c1sc(=S)n(-c2ccc(F)cc2F)c1N	-1	0
65	CCCCN(Cc1cccn1Cc1ccc(Br)cc1)C(=O)CN(CCOC)C(=O)C(CC)c1ccccc1 (stereo not given)	22	14
66	CC(=O)C(C)n1c(N2CCOCC2)nc2c1c(=O)n(C)c(=O)n2C (stereo not given)	-3	-1
67	O=S(=O)(Nc1ncccn1)c1ccc(NC(=S)Nc2ccc(Cl)c(Cl)c2)cc1	10	17
68	CCOC(=O)CCCC(=O)N1CCc2ccccc2C1c1ccc(Cl)cc1 (stereo not given)	5	16
69	O=C(C=Cc1nc2ccccc2s1)OCn1nnc2ccccc2c1=O	1	0
70	Cc1ccc(N2C(=O)NC(c3ccccc3)(C(F)(F)F)C2=O)nc1 (stereo not given)	-2	-1
71	COc1ccc2ccccc2c1-c1nc2ccccc2c(=O)n1Cc1ccc(F)cc1	3	4
72	CCOC(=O)c1cnc2cc(C(F)(F)F)ccc2c1Nc1ccc(C#N)cc1	8	13
73	CC(C)(C)OC(=O)Cn1cnc2sc3c(c2c1=O)CCCC3	-2	3
74	Cc1ccccc1N=Nc1c(O)n(C)c2ccccc12	0	5
75	C=CCNc1nc(N)c([N+](=O)[O-])c(Nc2ccc(C)cc2)n1	3	4
76	Cc1nn(C)cc1-c1ccnc(NC[C@@H]2CCCO2)n1	11	1
77	CCc1ccc(NC(=O)c2oc3ccccc3c2COC)cc1	-4	-3
78	O=C(Nc1c(C(=O)N2CCOCC2)oc2ccccc12)c1ccccc1Cl	-13	-10
79	O=[N+]([O-])c1cccnc1Sc1nc2ccc(Cl)cc2[nH]1	4	6
80	COc1ccc(C(CNc2cnc3ccccc3n2)N(C)C)cc1 (stereo not given)	0	5

Structural class: those above with a thiophene ring, fused or not (5)
nr	molecule	NPYLR7 agonist max-min	NPYLR7 agonist
26	COC(=O)c1c(C2CC2)csc1N	12	14
41	COCc1nc(OC)c2c(C)c(C(=O)NC3CCCC3)sc2n1	2&-3	3&0
50	COc1ccc(NC(=O)c2c(O)c3sccc3n(C)c2=O)c(C)c1	-7	-6
56	Brc1cc2c(cc1CSc1nnc(-c3cccs3)n1C1CC1)OCO2	8	0
73	CC(C)(C)OC(=O)Cn1cnc2sc3c(c2c1=O)CCCC3	-2	3

Pulled by structure from the list above, 4 records:
nr	molecule	NPYLR7 agonist max-min	NPYLR7 agonist
76	Cc1nn(C)cc1-c1ccnc(NC[C@@H]2CCCO2)n1	11	1
64	COC(=O)c1sc(=S)n(-c2ccc(F)cc2F)c1N	-1	0
66	CC(=O)C(C)n1c(N2CCOCC2)nc2c1c(=O)n(C)c(=O)n2C (stereo not given)	-3	-1
62	COc1ccc2[nH]c3c(c2c1)CCN(C(=O)c1ccc(OC(F)(F)F)cc1)C3c1ccc(COC(C)=O)o1 (stereo not given)	0	12

Further structures follow:
nr	molecule	NPYLR7 agonist max-min	NPYLR7 agonist
81	CCNC(=O)CSc1nnc(-c2cccnc2)n1C1CCCCC1C (stereo not given)	-7	-7
82	O=c1cc(-c2ccccc2)ncn1Cc1cccc(Cl)c1	-19	-13
83	CC(=O)N1CCN(c2cc3c(cc2F)c(=O)c(C(=O)Nc2cccc(C)c2)cn3C2CC2)CC1	17	19
84	CCc1cc(C(=O)NCc2ccc(CN(C)C)cc2)sc1C	6	10
85	CC1CN(C(=O)CCN2CCc3sccc3C2c2ccccc2)CCN1C(=O)c1cccs1 (stereo not given)	1	13
86	OCCn1nc(-c2ccccc2)cc1-c1ccccc1	-18	-11
87	COc1ccc(Cl)c(NS(=O)(=O)c2cnc(Cl)n2C)c1	-22	-22
88	Cc1ccccc1N1CCN(C(=O)NCCN2CCCC2)CC1	18	0
89	CCN(CC)C(=O)c1cc(-c2cc(C(=O)N(CC)CC)c3ccccc3n2)nc2ccccc12	-8	2
90	CC(OC(=O)c1cccc(CN2C(=O)CNC2=O)c1)C(=O)C12CC3CC(CC(C3)C1)C2 (stereo not given)	10	0
91	COc1ccc(S(=O)(=O)N2CCC(Cc3ccccc3)CC2)cc1N1CCN(S(=O)(=O)c2ccc(F)cc2)CC1	0	18
92	CN(CC(=O)N(CCC#N)CCC#N)Cc1ncc(-c2ccccc2)[nH]1	3	4
93	COc1ccc(/C=C2\C=C(c3ccccc3)N(c3ccc(Br)cc3C)C2=O)cc1	7	0
94	O=C(NCc1ccc(N2CCOCC2)nc1)c1ccccn1	1	1
95	NS(=O)(=O)c1ccc2c(c1)CCN2C(=O)CN1CCCCC1	-4	-2
96	COc1ccc(C(=O)Nc2ccc(-c3nc4cc(C)ccc4o3)cc2)cc1[N+](=O)[O-]	-4	9
97	O=C(O)c1coc(CN(Cc2cccc(Oc3ccccc3)c2)Cc2cccc(C(F)(F)F)c2)n1	-2	0
98	CCC(CC)C(=O)Nc1nonc1-c1ccc(C)cc1	-15	-11
99	CN(C)S(=O)(=O)c1ccc(C(=O)Nc2c3c(nn2-c2ccccc2)CS(=O)(=O)C3)cc1	-6	-6
100	COCCNC(=O)N1CCCN(C(=O)C(C)(C)C)CC1	2	2
101	CC(C)N(Cc1csc(COc2ccc(Cl)cc2)n1)C(=O)c1ccc(F)cc1	26	24
102	S=c1[nH]nc(SCC#Cc2ccccc2)s1	25	1
103	O=C(NCC1CCCO1)c1cnn(-c2ccc(Cl)cc2)c1-c1ccccc1 (stereo not given)	28	19
104	CC(C)c1cc(C2CCN(C(=O)c3ccc(-c4ncn[nH]4)cc3)CC2)[nH]n1	3	7
105	CN(Cc1cccc2cnccc12)C(=O)c1cn(Cc2ccccc2F)nn1	8	15
106	CCN(CC)c1onc(-c2ccccc2)c1CN(CCN1CCOCC1)CC(O)COCc1ccccc1 (stereo not given)	10	13
107	CC(=O)OC12CC3CC(C1)CC(C(=O)N(C)Cc1nc(C)no1)(C3)C2	17	24
108	CC(C)(C)c1ccc(C2SCCN2C(=O)c2ccc(Cl)cc2)cc1 (stereo not given)	5	-1
109	CC(C)(CCl)Nc1nc2ccccc2s1	0	0
110	Cc1ccc(-c2nn(-c3cccc(F)c3)cc2CNCCc2ccco2)o1	-3	1
111	COc1ccccc1N=C1SC(C(=O)Nc2ccccc2F)CC(=O)N1C (stereo not given)	4	5
112	CC(=O)N1CCCN(C(=O)CCc2ccccc2F)CC1	0	2
113	COCCN(Cc1nccn1Cc1ccc(Cl)cc1Cl)C(=O)c1ccc(Cl)cc1	4	-2
